Mtb bLac sens – beta-lactam sensitization of Mtb H37Rv. 330,000 compounds, 0.27% hits. M. tuberculosis H37Rv growth with meropenem, percent inhibition; hits of this screen are not shown here. inhibition, % at 25 µM;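 active means about 74% or more and at least 40 points above the plate without the antibiotic, then above 30% in a dose series; inconclusive means first-round hits that could not be retested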;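 further: growth measured after seven days incubation then overnight dye step; 0% = bacteria only wells and 100% = bacteria with antibiotic; twin plates without the antibiotic show which effects depend on it; some results filed as inactive read as strong as hits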
Starred values were filed as active, the others as inactive; ? = inconclusive.

The opening 5 entries as a preview:
SMILES	Mtb bLac sens
O=C(Nc1ncccn1)c1ccc(Cl)c([N+](=O)[O-])c1	-2.7
CN(C)CCCNc1oc(-c2ccccc2Cl)nc1S(=O)(=O)c1ccccc1	9.8
O=C(COc1ccc(-c2ccccc2)cc1)Nc1cccnc1	97.8
COc1ccc(CNC(=O)COC(=O)c2ccc(C)c(S(=O)(=O)N3CCOCC3)c2)cc1OC	-2.8
COc1cc(SC)ccc1C(=O)NNC(=O)C1COc2ccccc2O1 (stereo not given)	3.8

The list itself, from the start:
SMILES	Mtb bLac sens
O=C(Nc1ncccn1)c1ccc(Cl)c([N+](=O)[O-])c1	-2.7
CN(C)CCCNc1oc(-c2ccccc2Cl)nc1S(=O)(=O)c1ccccc1	9.8
O=C(COc1ccc(-c2ccccc2)cc1)Nc1cccnc1	97.8
COc1ccc(CNC(=O)COC(=O)c2ccc(C)c(S(=O)(=O)N3CCOCC3)c2)cc1OC	-2.8
COc1cc(SC)ccc1C(=O)NNC(=O)C1COc2ccccc2O1 (stereo not given)	3.8
O=C1C=C(c2ccc(Cl)c(C(F)(F)F)c2)C[C@@H](c2ccc3c(c2)OCO3)C1	-2.6
Cc1ccccc1NC(=O)COC(=O)C1CC2CCCC(C1)C2=O (stereo not given)	2.2
CCN1CCN(c2ccc(Cl)cc2NC(=O)c2ccc(-n3nc(C)cc3C)cc2)CC1	5.9
C[C@H](NC(=O)c1ccccc1Cl)C(=O)OCc1cn2cc(Cl)ccc2n1	-1.4
CC(OC(=O)C1CSC2(C)CCC(=O)N12)C(=O)Nc1ccc(F)cc1 (stereo not given)	1.2
COC(=O)c1ccc(CNC(=O)COC(=O)/C=C/c2cc(OC)c(OC)c(OC)c2)cc1	2.0
CCOC(=O)c1[nH]c(C)c(C(=O)OCC(=O)NCc2ccc(OC)c(OC)c2)c1C	-4.5
COC(=O)C1=C(c2ccc(OCc3ccccc3)cc2)C[C@@H]2CC[C@H]1N2C(=O)NCc1ccccc1	-4.2
C[C@H](CO)N1C[C@H](C)[C@@H](CN(C)Cc2ccc(C(=O)O)cc2)Oc2c(NS(=O)(=O)c3ccc(F)cc3)cccc2C1=O	-10.2
O=C(Cn1c(CCCO)nc2ccccc21)Nc1ccccc1-c1ccccc1	-11.3
CCCn1c(SCC(=O)c2c(N)n(C3CC3)c(=O)[nH]c2=O)nnc1-c1ccncc1	0.1
O=C1NC(=O)C(c2ccc(Cl)cc2)N1 (stereo not given)	2.9
COc1cccc(NC(=O)CN2C(=O)NC(Cc3c[nH]c4ccccc34)C2=O)c1 (stereo not given)	0.7
C[C@@H](C(=O)Nc1ccccc1N1CCOCC1)N1C(=O)C2CCCCC2C1=O (stereo not given in full)	0.0
COc1cc(OC)cc(-c2oc(=O)c3cc(OC)c(OC)cc3c2C#CCCO)c1	3.1
CC1CC(=O)Nc2ccccc2N1C(=O)CSc1nnnn1C (stereo not given)	-8.4
CCC(CN(C)C)Oc1cc(NCc2ccccc2)c2ncn(C(C)C)c2c1 (stereo not given)	-3.5
COc1ccc(C(C)(C)C)cc1NC(=O)CN1C(=O)C(=O)N(Cc2ccco2)C1=O	4.2
Cc1ccc(N(C)S(=O)(=O)c2cccc(C(=O)OCC(=O)c3c(N)n(C)c(=O)n(C)c3=O)c2)cc1	6.0
Cc1cc(C)cc(NC(=O)COC(=O)CNC(=O)C2CCCCC2)c1	3.6
COC(=O)C1=C(c2ccc(-c3ccccc3)c(F)c2)C[C@@H]2CC[C@H]1N2C(=O)NC1Cc2ccccc2C1	3.3
COc1ccc(/C=C/C(=O)OCC(=O)c2ccccc2F)cc1	3.3
O=C(O[C@H]1[C@H](Cc2ccccc2)NS(=O)(=O)[C@H]2C[C@@H]3C=C[C@]12O3)c1ccc([N+](=O)[O-])cc1	-4.2
Cc1ccc(C)c(OCC(=O)Nc2ccc(N3CCOCC3)cc2N2CCOCC2)c1	9.0
COCCN(C(=O)c1cc(Cl)ccn1)c1c(N)n(Cc2ccccc2)c(=O)[nH]c1=O	-8.8
COc1ccc(NC(=O)COC(=O)c2ccc3ccccc3n2)cc1OC	3.2
CCOCCCNC(=O)C1CCN(Cc2cccc(OCc3ccccc3)c2)CC1	4.2
O=C(Cc1c(F)cccc1Cl)N1CCN(S(=O)(=O)c2cccs2)CC1	-5.0
O=C(O)c1cc(S(=O)(=O)Nc2cc(Cl)ccc2Oc2ccccc2)ccc1O	-4.4
Cc1cc(NC(=O)CSc2nc(-c3cccs3)nc3ccccc23)no1	-0.1
COc1ccc(-c2cn(CCC(=O)O)c(C)n2)cc1	1.2
Nc1c(C(=O)CSc2nnc(-c3ccccc3F)o2)c(=O)[nH]c(=O)n1C1CC1	0.6
COc1cc(OC)cc(-c2sc3ccc(OC)cc3c2-c2ccc(O)cc2)c1	65.9
Cc1noc(C)c1COc1ccccc1C(=O)NNC(=O)c1ccc(F)cc1	-3.8
O=C(CSc1nnc(-c2ccncc2)s1)Nc1ccccc1	-4.2

Quoted from the listing:
Mtb bLac sens, Cc1ccccc1NC(=O)COC(=O)C1CC2CCCC(C1)C2=O (stereo not given) = 2.2
Mtb bLac sens, COc1ccc(CNC(=O)COC(=O)c2ccc(C)c(S(=O)(=O)N3CCOCC3)c2)cc1OC = -2.8

(continued)
SMILES	Mtb bLac sens
C[C@]12CCC3C(CC[C@H]4C[C@@H](O)CC[C@]34C)[C@H]1C=CC2=O (stereo not given in full)	0.6
C=CC[C@@H](CC(=O)N(CCO)Cc1ccccc1)C(=O)N[C@@H](C)COC(=O)[C@@H](CC=C)CC(=O)OC(C)(C)C	-0.4
CC(NC(=O)COC(=O)c1cc([N+](=O)[O-])ccc1N1CCOCC1)c1ccccc1 (stereo not given)	-7.2
Cc1cc(C)cc(C(=O)NCC(=O)OCC(=O)c2c(N)n(C)c(=O)n(C)c2=O)c1	-4.2
CN(CC(=O)Nc1ccc(F)cc1)C(=O)c1ccc(N2C(=O)CCC2=O)cc1	5.2
O=C(Nc1cc(Cl)ccc1N1CCOCC1)c1ccc(=O)[nH]c1	-2.0
CCCc1cc(=O)oc2cc(OCC(=O)N3CCC(C(N)=O)CC3)ccc12	0.3
Cc1ccc(S(=O)(=O)Nc2ccc3c(c2)C(=O)N([C@H](C)CO)C[C@H](C)[C@@H](CN(C)Cc2ccc(-c4ccccc4)cc2)O3)cc1	66.5
COc1ccc(S(=O)(=O)N(C)C[C@H]2Oc3c(NC(=O)C4CC4)cccc3C(=O)N([C@H](C)CO)C[C@@H]2C)cc1	10.3
O=C(NCC1COc2ccccc2O1)c1ccc(Cl)c(S(=O)(=O)N2CCOCC2)c1 (stereo not given)	-3.9
CC(C)c1ccc(NC(=O)[C@H](Cc2c[nH]c3ccccc23)NC(=O)[C@@H]2Cc3ccccc3CN2)cc1	26.5
COc1ccc2oc(C(=O)Nc3nc(C)cs3)c(C)c2c1	5.0
Cn1nnnc1Sc1ncnc2scc(Br)c12	100.0
COC(=O)c1cccc(NC(=O)CCN2C(=O)C3CC=CCC3C2=O)c1 (stereo not given)	1.8
O=[N+]([O-])c1ccccc1S(=O)(=O)N1CCN(c2ccccn2)CC1	-6.7
COc1ccc(S(=O)(=O)N2CCCCCC2)cc1C(=O)N1CCN(c2ccccc2O)CC1	5.2
CN(C(=O)c1ccc(NC(=O)Cc2cccc(NC(=O)C3CCN(C(=O)C4CCC4)CC3)c2)cc1)C1CCCC1	4.5
O=C(Cc1ccccc1F)Nc1cccc(S(=O)(=O)N2CCOCC2)c1	-3.6
CCCc1nnc(NC(=O)CCS(=O)(=O)c2ccccc2)s1	15.6
Oc1cncc(-c2cccnc2)c1	-0.7
Cc1ccc(Cl)cc1N1CCN(C(=O)c2ccccc2SCC(=O)N2CCCC2)CC1	3.7
CC(Sc1nn(-c2ccccc2)c(=S)s1)C(=O)NCC1CCCO1 (stereo not given)	-0.6
O=C(NC(Cc1ccccc1)C(=O)O)/C(=C/c1ccccc1)NC(=O)c1ccco1 (stereo not given)	-6.2
O=C(c1ccc2c(=O)n(Cc3ccccc3)c(=S)[nH]c2c1)N1CCOCC1	-3.5
CCCCNC(=O)[C@@H]1CCCN1S(=O)(=O)c1cccc2cccnc12	-12.0
Cc1ccc(C(C)C)c(OCC(=O)OCC(=O)c2c(N)n(C)c(=O)n(C)c2=O)c1	17.1
O=C(COc1ccccc1[N+](=O)[O-])OCC(=O)c1ccc(Br)s1	-1.1
O=C(CSc1ncnc2sccc12)NC1CCS(=O)(=O)C1 (stereo not given)	-5.2
O=C(CCC(=O)c1cccs1)OCC(=O)c1ccc(F)cc1	-1.1
O=C(NCc1ccc(Cl)cc1)c1cccc(S(=O)(=O)N2CCCC2)c1	-8.2
O=C(CN1CCN(S(=O)(=O)c2cc(C(F)(F)F)ccc2Cl)CC1)N1CCc2ccccc2C1	-7.4
O=C(CCNC(=O)c1ccc(Cl)cc1)Nc1ccc(S(=O)(=O)N2CCOCC2)cc1	-1.9
CCCCn1c(N)c(N(CCOC)C(=O)c2sc3ccccc3c2Cl)c(=O)[nH]c1=O	2.9
NC(N)=N/N=C/c1ccc(OCc2ccccc2)c(OCc2ccccc2)c1	30.4
CCC(CO)Oc1cc(NCc2ccccc2F)c2ncn(C(C)C)c2c1 (stereo not given)	6.1
Cc1cc(Cl)nc(Cl)c1C(=O)NCCc1ccccc1	-1.1
COc1ccc(C)cc1NC(=O)CCN1CCN(C/C=C/c2ccccc2)CC1	3.3
COC(=O)c1ccc(/C=C/C(=O)OCC(=O)c2ccc[nH]2)cc1	4.0
COc1ccc(C)cc1N(CC(=O)N1CCCC1)S(=O)(=O)c1ccccc1	-6.2
CN(C(=O)COC(=O)Cc1c(F)cccc1Cl)c1c(N)n(Cc2ccccc2)c(=O)[nH]c1=O	4.3
S=c1[nH]c2ccc(Cc3ccc4[nH]c(=S)[nH]c4c3)cc2[nH]1	8.7
O=C(COC(=O)c1ccc(CO)cc1)c1ccc(S(=O)(=O)N2CCCCC2)cc1	-7.3
COc1ccc(S(=O)(=O)Nc2c(C)nn(C)c2C)cc1Br	-3.3
CN(C(=O)CN1C(=O)c2ccccc2S1(=O)=O)C1CCCCC1	-11.0
O=C(COc1ccc(Cl)cc1)OCC(=O)N1CCOCC1	4.0
O=C(COC(=O)c1cc[n+]([O-])cc1)Nc1ccc(Cl)cc1Cl	3.7
COc1ccc2c(c1)CCCC21NC(=O)N(CC(=O)NCc2cccs2)C1=O (stereo not given)	-4.2
CC(C)(C)N(Cc1ccccc1)C(=O)COC(=O)c1ccc(N2CCCC2=O)cc1	-7.5
Cc1ccccc1SCC(=O)NCC(c1ccc(F)cc1)N1CCOCC1 (stereo not given)	-5.6
CCCc1cc(=O)[nH]c(SCC(=O)N2CCc3cc(OC)c(OC)cc3C2)n1	5.1

More compounds
SMILES	Mtb bLac sens
O=C(COC(=O)/C=C/c1cccc(C(F)(F)F)c1)NCc1cccs1	1.3
CC(C)c1nc(SCC(=O)Nc2cccc3ccccc23)n[nH]1	2.3
O=C(COC(=O)CC1CCCC1)Nc1cccc(F)c1	0.7
CCC1(c2ccccc2)NC(=O)N(CC(=O)Nc2ccc(N3CCOCC3)cc2)C1=O (stereo not given)	-7.7
Cc1cc(OCc2cc(C(=O)N3CCC(Oc4cccnc4)CC3)no2)cc(C)c1Cl	?
COc1ccc(N2C(=O)N3[C@@H]4c5ccccc5OC[C@@H]4[C@@H](c4ccccc4)[C@@]3(C)C2=O)cc1	1.3
COc1cccc(NC(=O)CN2C(=O)NC(CCc3ccccc3)C2=O)c1 (stereo not given)	-8.4
NS(=O)(=O)c1ccc(CCNC(=O)CNC(=O)c2ccc(Oc3ccccc3)cc2)cc1	6.1
COc1ccc(NC(=O)CNc2ccccc2C(C)=O)cc1S(=O)(=O)N1CCOCC1	-8.4
CCOc1ccc(C(=O)NNC(=O)CN2C(=O)C3CC=CCC3C2=O)cc1OC (stereo not given)	-3.3

3 consecutive compounds from above, for reference:
SMILES	Mtb bLac sens
NS(=O)(=O)c1ccc(CCNC(=O)CNC(=O)c2ccc(Oc3ccccc3)cc2)cc1	6.1
COc1ccc(NC(=O)CNc2ccccc2C(C)=O)cc1S(=O)(=O)N1CCOCC1	-8.4
CCOc1ccc(C(=O)NNC(=O)CN2C(=O)C3CC=CCC3C2=O)cc1OC (stereo not given)	-3.3

Carrying on.
SMILES	Mtb bLac sens
O=C(CNC(=O)c1ccccc1F)Nc1ccc2c(c1)CCC2	-1.1
Clc1ccc(-c2nc3ccccc3[nH]2)cn1	1.2
CCN(C(=O)CSc1ccc(S(=O)(=O)N2CCOCC2)cn1)c1ccccc1	-3.5
COc1ccc(CNC(=O)C(C)Sc2nc3ccccc3c(=O)n2CC2CCCO2)cc1 (stereo not given)	3.6
COc1ccc(-c2nc(CC(=O)Nc3cccc(S(=O)(=O)NC4=NCCC4)c3)cs2)cc1	6.7
COc1cc(NC(=O)COC(=O)CNC(=O)C23CC4CC(CC(C4)C2)C3)cc(OC)c1	-0.6
Cc1sc2ncnc(N3CCC(C(=O)Nc4sc5c(c4C(N)=O)CCC(C)C5)CC3)c2c1C (stereo not given)	74.2
Cc1nc(SCC(=O)NCC2CCCO2)c2cc(-c3ccccc3)sc2n1 (stereo not given)	10.0
C#CCOCCOCCOCCNc1nc(N2CCN(C(=O)[C@H](CCCN=C(N)N)n3cc(C(N)[C@@H](C)CC)nn3)CC2)nc(N2CCN(C(=O)[C@H](CCC(=O)O)n3cc([C@@H](N)CCCCN)nn3)CC2)n1 (stereo not given in full)	-5.3
Cc1noc(C)c1COc1ccccc1C(=O)N1CCN(c2cccc(C(F)(F)F)c2)CC1	3.4
CC(C)(C)OC(=O)NCCCCCNC(=O)c1[nH]cnc1C(=O)NC1CCN(C(=O)OC(C)(C)C)CC1	-1.7
CC(C)c1ccc(Nc2nnc(SCC(=O)NCC3CCCO3)s2)cc1 (stereo not given)	0.2
Cc1nnc(NC(=O)c2ccc3c(c2)NC(=O)CS3)s1	20.2
O=C(NNS(=O)(=O)c1c(F)cc(F)c(Cl)c1F)C12CC3CC(CC(C3)C1)C2	-2.6
O=C(COC(=O)c1cccc(F)c1)NC(=O)NCc1ccccc1	-2.5
COC(=O)C1=C(c2ccc(Cl)c(C(F)(F)F)c2)C[C@@H]2CC[C@H]1N2C(=O)N1CCC(O)(c2ccc(Cl)cc2)CC1	0.8
CCCn1nc(C(=O)Nc2ccc(N3CCOCC3)cc2)c2ccccc2c1=O	11.1
CCOc1ccccc1Nc1nnc(SCC(=O)NCC2CCCO2)s1 (stereo not given)	-0.7

Screening results: PubChem, Southern Research Specialized Biocontainment Screening Center

These rows are one share of the data; the hit share may differ from the screen's.
